# Bioassay records (PubChem BioAssay)
# UCH37 inh – inhibitors of human UCH37 deubiquitinase, primary screen, biochemical, Ub-AMC cleavage, fluorescence; purified proteasome/UCH37; AID 588478, 2011; Ubiquitin carboxyl-terminal hydrolase isozyme L5 (Homo sapiens), Q9Y5K5; inhibition, % (test concentration not listed); 330,000 tested, 0.33% active;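 active = mean of two replicates above 20%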;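 also: 0% = compound-free wells with enzyme and 100% = wells lacking proteasome; stock transfer was 100 nL into about 20 µL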
# Target sequence (Q9Y5K5 whole entry, looked up): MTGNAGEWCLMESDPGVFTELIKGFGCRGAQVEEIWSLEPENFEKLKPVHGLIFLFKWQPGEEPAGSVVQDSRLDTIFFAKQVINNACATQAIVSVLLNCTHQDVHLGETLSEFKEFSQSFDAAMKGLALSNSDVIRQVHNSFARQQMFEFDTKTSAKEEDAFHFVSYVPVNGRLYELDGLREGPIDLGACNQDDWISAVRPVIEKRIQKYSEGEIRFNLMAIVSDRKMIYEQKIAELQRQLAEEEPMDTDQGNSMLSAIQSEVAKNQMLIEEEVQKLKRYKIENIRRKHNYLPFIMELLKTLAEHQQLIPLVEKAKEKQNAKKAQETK
#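 Test system – human UCH37 enzyme supplied as purified proteasome complex · Incubation – 30 min preincubation with enzyme, 25 min cleavage at room temperature · Detection – AMC fluorescence from Ub-AMC cleavage, excitation 355 nm, emission 460 nm · Benchmarks – no-proteasome wells (full inhibition) and compound-free wells (no inhibition)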
# HNF4A DNA FP – change in binding of human HNF4A to DNA, primary screen, biochemical, fluorescence polarization, FITC-DNA; Hepatocyte nuclear factor 4-alpha (Homo sapiens), P41235; 1 h; activity change, % at 10 µM; 360,000 tested, 0.3% active; in the data active = activity change above about 30%, passing the limit was not always enough;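 also: controls were the assay level and a saturating level of protein; the project sought stronger binding though the title names inhibitors; some compounds called inactive have numbers as strong as hits; positive values seem to mean higher polarization but the record does not say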
# AF4-AF9 inh – inhibitors of AF4 peptide binding to AF9, primary screen, biochemical, AlphaScreen, biotin-AF4 peptide, FLAG-AF9, single point. AID 651704, 2012. 350,000 tested, 0.47% active. inhibition, % at 10 µM;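 active = every replicate reaching a set inhibition limit, whatever the replicate mean, cut at about 25% in these data; inconclusive = mean inhibition reaches that limit but some replicates miss it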;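 also: 0% = plate neutral control median and 100% = total signal loss; the record names both 10 and 1 µM as test concentration; the first replicate is given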
# Target sequence (P42568 whole entry, looked up): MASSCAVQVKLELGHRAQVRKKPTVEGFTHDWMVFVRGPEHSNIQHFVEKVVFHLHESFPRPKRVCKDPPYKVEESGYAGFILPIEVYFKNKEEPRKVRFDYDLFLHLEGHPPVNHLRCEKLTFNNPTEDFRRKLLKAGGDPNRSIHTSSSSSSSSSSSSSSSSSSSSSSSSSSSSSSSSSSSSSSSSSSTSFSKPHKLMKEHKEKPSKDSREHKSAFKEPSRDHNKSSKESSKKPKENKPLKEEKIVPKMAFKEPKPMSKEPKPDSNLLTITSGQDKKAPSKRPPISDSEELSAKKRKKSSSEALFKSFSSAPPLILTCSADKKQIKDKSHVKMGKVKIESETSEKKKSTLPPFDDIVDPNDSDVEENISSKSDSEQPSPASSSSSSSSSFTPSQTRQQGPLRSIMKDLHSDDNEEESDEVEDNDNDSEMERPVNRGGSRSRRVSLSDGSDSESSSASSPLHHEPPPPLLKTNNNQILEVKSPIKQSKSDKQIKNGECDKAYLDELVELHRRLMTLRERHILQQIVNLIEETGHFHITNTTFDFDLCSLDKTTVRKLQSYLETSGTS
# Vif TR-FRET – inhibitors of Vif binding to APOBEC3G peptide, primary screen, biochemical, TR-FRET, GST-Vif 1-94, biotin-A3G peptide, dose response retest (AID 1117319); Virion infectivity factor (Human immunodeficiency virus type 1 group M subtype B (isolate …; TR-FRET GST-Vif / biotin-A3G peptide binding; higher % means a stronger effect; test concentration not given here; strong numbers were not always called active; one-dose inhibition, %; IC50 in µM for titrated hits; 260,000 tested, 0.57% active;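 active = above the screen mean plus three standard deviations and confirmed in dose response; inconclusive = results disagree or hit not tested in dose response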;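 also: Vif residues 1-94 fused to GST binding biotinylated APOBEC3G peptide 110-148; 0% = full assay without inhibitor and 100% = GST in place of GST-Vif; retest series ran down from 100 µM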
# FGF22 binding – binders of human FGF22 protein, primary screen, FGF22 synaptogenesis inhibitor project, biophysical, thermal shift, single point | Fibroblast growth factor 22 (Homo sapiens), Q9HCT0 | recombinant FGF22 thermal shift, SYPRO orange fluorescence; percent of sucrose octasulfate shift, DMSO zero | 340,000 tested, 1.5% active | calls only at 9.99 µM | AID 651658, 2012;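 active = melting point raised past a set limit in the mean and every replicate; inconclusive = no clear call; three in four hits are not shown here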
# Target sequence (Q9HCT0 whole entry, looked up): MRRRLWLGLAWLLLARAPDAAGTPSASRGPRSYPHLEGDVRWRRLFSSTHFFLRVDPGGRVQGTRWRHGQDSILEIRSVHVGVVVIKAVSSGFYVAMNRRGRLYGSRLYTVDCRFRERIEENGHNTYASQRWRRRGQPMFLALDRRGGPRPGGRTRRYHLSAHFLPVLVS
# Ecoli growth – E. coli growth inhibition, primary screen, OD600. Escherichia coli growth, 23 h; hits give low values. OD600 absorbance (no concentration beside the values). 330,000 tested, 0.21% active. AID 1053175, 2014;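 active = OD600 absorbance below the run mean of sample wells minus 3.6 SD, in any replicate, cut at about 0.56 in these data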;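 also: stock transfer was 300 nL into about 60 µL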
# RanGTP-Impb inh – inhibitors of RanGTP-importin-beta interaction, primary screen, biochemical, FRET, CFP-Ran, YFP-importin-beta, homogeneous | Ran GTPase (GTP-bound) - importin-beta complex | cell-free CFP-Ran/YFP-importin-beta FRET ratio | inhibition, % (no concentration beside the values) | 300,000 tested, 1.1% active;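 active = most replicates above 15%; inconclusive = exactly half above 15%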;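 also: 0% = DMSO wells and 100% = Ran loaded with GDP instead of GTP; wells of about 40 µL received 100 nL stock; the first replicate is given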
# Active calls of the source: *; i = inactive; ? = inconclusive; . = no result given; & = joins results of further samples. Only part of the results is shown; count on the stated rates, not on these rows.
SMILES,UCH37 inh,HNF4A DNA FP,AF4-AF9 inh,Vif TR-FRET,FGF22 binding,Ecoli growth,RanGTP-Impb inh
O=C(COc1ccccc1)NC(=S)N1CCc2ccccc21,7.4,-0.5,2.9,.,i,0.69,-0.3
COc1ccccc1NC(=O)C1=C(C)NC(SCC(=O)c2ccccc2)=C(C#N)C1c1ccco1 (stereo not given),.,5.2,.,-40%,.,.,-4.8
COc1ccccc1N1C(=O)C2C3C=CC(CC3)C2C1=O (stereo not given),2.5,3.4,-1.6,.,i,0.71,9.7
COc1ccc(C(=O)CN2C(=O)NC3(CCc4ccccc43)C2=O)c(OC)c1 (stereo not given),2.0,-0.6,0.1,-2%,i,0.69,.
Cc1cccc(N2CCN(C(=O)[C@H](C)N3C(=O)C4CC=CCC4C3=O)CC2)c1C (stereo not given in full),2.5,-0.4,0.2,-10%,i,0.67,.
Cc1cc(N2CC(C(=O)O)CC2=O)ccc1Br (stereo not given),1.3,2.9,.,-1%,.,0.69,?
COc1ccccc1NCCC(=O)O,0.2,3.7,1.9,-5%,i,0.67,3.9
COc1cc(C2C3=C(COC3=O)Oc3cc4c(cc32)OCO4)cc(OC)c1OC (stereo not given),.,0.2,-0.6,-6%,i,.,.
CN(C)c1cccc2c(S(=O)(=O)N3CCCC3)cccc12,-39,0.9,-17,.,i,0.69,-2.9
Cc1cc(N2CCN(c3cccc(C)c3C)CC2)nc(-c2ccccc2)n1,-1.9,-3.2,.,-4%,.,0.79,0.1
O=C(O)COc1c(F)c(F)c(C(F)(F)F)c(F)c1F,1.8,0.6,.,11%,.,0.7,0.7
CCC(=O)Nc1sc2c(c1C#N)CCCCC2,-1.0,-5.6,.,3%,.,0.72,1.5
CCN(CC(=O)N1CCC(C)CC1)S(=O)(=O)c1ccc(C)cc1,4.6,-0.1,-9.3,.,i,0.71,-2.2
COCCN(C(=O)CCC(=O)Nc1nccs1)C(C(=O)NC(C)(C)C)c1ccc(F)cc1 (stereo not given),2.5,1.5,1.0,-1%,i,0.72,-8.8
CC1CC(C)CN(C(=O)CCNS(=O)(=O)c2ccc3c(c2)CCC(=O)N3)C1 (stereo not given),3.0,-4.7,.,-3%,.,0.64,2.9
COc1cc(NC(=O)C2CCN(S(=O)(=O)c3cccnc3)CC2)cc(OC)c1OC,1.2,-0.7,.,0%,.,0.73,-0.1
O=Cc1cn(CC(O)Cn2cc(C=O)c3ccccc32)c2ccccc12,1.6,1.1,-2.6,0%,i,0.65,0.8
CCN(CC)c1ccc(N2C(=O)/C(=C/c3ccccn3)SC2=S)cc1,6.9,-9.2,-1.5,1%,i,0.71,-0.4
COP(=O)(OC)C(Nc1ccc(C)cc1)c1ccc(Br)cc1 (stereo not given),.,-0.2,5.7,1%,i,.,.
Cc1ccc(CC(=O)Nc2cccc(S(=O)(=O)N3CCOCC3)c2)cc1,5.9,-0.1,-0.3,.,i,0.71,3.2
C#CCOCCOCCOCCNc1nc(N2CCN(C(=O)[C@H]([C@@H](C)CC)n3cc(CCC(=O)O)nn3)CC2)nc(N2CCN(C(=O)[C@H](Cc3ccc(O)cc3)n3cc(CCO)nn3)CC2)n1,.,-0.8,-2.5,.,i,.,.
COc1cc([N+](=O)[O-])ccc1NC(=O)Oc1ccc(NC(C)=O)cc1,.,-0.6,-5.1,>100µM*,i,.,-7.1
O=C(CN1CCC(O)(c2ccccc2F)CC1)NCCc1c[nH]c2ccccc12,1.3,1.7,.,-6%,.,0.69,2.9
COc1cccc(NC(=O)CCN2CCC(C(N)=O)CC2)c1,0.4,0.7,.,33%,.,0.75,-3.4
COCCNc1nc2sc3c(c2c(=O)n1Cc1ccco1)CCCCC3,2.4,.,-0.9,.,i,0.72,-2.9
COc1cc(OC)c(C2Nc3cccc4cccc(c34)N2)c(OC)c1,-139,-1.1,10,.,i,0.67,8.3
CC(C)CNC(=O)c1cccc(C(=O)NCC(C)C)c1,3.8,0.7,.,-5%,.,0.68,-2.3
Cc1cccc(N2CCN(C3=NC(=O)C(=C4CCCCC4)S3)CC2)c1,0.7,-0.3,.,?,.,0.71,5.1
CCOC(=O)C1CCCN(C(=O)C(C)Oc2ccc(Cl)cc2Cl)C1 (stereo not given),-2.1,3.4,4.3,21%,i,0.65,.
CC(=O)Nc1cccc(NC(=O)C2CCCN2C(=O)Nc2ccc(C)cc2)c1 (stereo not given),0.7,1.5,.,9%,.,0.71,-1.7
CC(C)(C)OC(=O)N1CCC(CC2CC(c3cccc(Br)c3)=NO2)(C(=O)NCC2CCCCC2)CC1 (stereo not given),4.4,.,1.7,.,i,.,3.9
COc1cccc(C(=O)NC2=NCCS2)c1OC,0.8,0.3,.,-7%,.,0.69,3.1
O=C(CSc1nnc(CNc2ccc(F)cc2)n1Cc1ccccc1)N1CCOCC1,2.2,0.0,.,-4%,.,0.69,0.2
Cc1cc(C)cc(NC(=S)N2CCN(c3ncccn3)CC2)c1,.,1.0,-3.8,.,i,.,3.8
Cc1ccccc1NC(=S)N(CCCN1CCOCC1)Cc1ccccn1,-18,3.4,-54,.,i,0.7,-0.5
CC[N+]1=C(C)C(C)(C)c2cc(C)ccc21,5.9,13,-84,?,.,0.73,-6.1
CC(C)N(C(=O)CN(C#N)c1nc(N(C)C)nc(N(C)C)n1)c1ccccc1,3.0,3.2,6.4,-6%,i,0.67,2.9
O=C(OCC(=O)N1CCc2ccccc21)[C@@H]1CCCN1S(=O)(=O)c1ccccc1F,2.3,2.6,1.8,-7%,i,0.69,.
O=C(NCc1ccccc1CN1CCCC1)c1cccc(S(=O)(=O)N2CCOCC2)c1,2.5,2.1,0.4,-5%,i,0.7,.
C=CCOc1c(CNn2cn[nH]c2=S)cccc1OC,-0.2,-0.2,-5.9,7%,i,0.72,4.9
CC1CCN(C(=O)c2cc(S(=O)(=O)N3CCCCC3)c[nH]2)CC1,4.2,3.5,-5.1,.,i,0.67,1.9
CCO[C@H]1c2c(ccc3ccc(=O)oc23)OC(C)(C)[C@@H]1O,2.8,6.3,-3.8,.,i,0.79,.
CNC[C@H]1Oc2c(NS(=O)(=O)c3ccccc3)cccc2C(=O)N([C@H](C)CO)C[C@@H]1C,1.8,3.9,-1.7&-29,.,i,.,.
Cc1ccc(S(=O)(=O)N2CCN(CC(=O)Nc3ccc4c(c3)CCC4)CC2)cc1C,0.8,-0.1,.,7%,.,0.68,0.4
COc1ccc([C@H]2CC(=O)C=C(c3ccc(SC)cc3)C2)cc1OC,-1.6,-4.9,-3.2,.,i,.,.
CC12CCC(C(=O)NCCCN3CCOCC3)(C(Br)C1=O)C2(C)C (stereo not given),4.3,-2.0,-0.6,11%,i,0.68,0.4
O=C(CS(=O)CC(=O)Nc1ccccc1-c1ccccc1)Nc1ccc(F)cc1 (stereo not given),1.7,2.9,0.4,.,i,0.67,-2.0
Cc1cc(C)n2c(SCc3ccc(C#N)cc3)nnc2n1,2.7,-3.0,.,18%,.,0.67,-0.5
COc1ccc(C2c3[nH]c4ccccc4c3C[C@H]3C(=O)N(c4ccccc4C(=O)N4CCC[C@H]4C(=O)O)C(=O)N23)cc1 (stereo not given in full),3.7,-3.0,0.4,.,i,0.82,-1.0
Cc1ccc(N2CCN(c3ccc(NCc4nc5ccccc5n4C)cc3)CC2)cc1,.,-5.7,12,31%,i,.,-11
COc1ccc(CCNC(=O)c2ccc(SC)cc2OC)cc1,0.4,2.1,-3.1,.,i,0.63,2.9
Cc1ccc(C)c(OCC(=O)Nc2ccc(S(=O)(=O)Nc3ccccn3)cc2)c1C,-6.7,2.5,.,8%,.,0.74,0.3
CC1(OC(=O)CCc2ccccc2)C(=O)C=C2C=C(c3ccc(C#N)cc3)N(C3CCCC3)C=C2C1=O (stereo not given),.,-1.3,-0.2,.,i,.,-0.3
COCCn1c(N)c(Sc2ccc(Cl)cc2)c(=O)[nH]c1=O,4.7,0.7,-2.2,.,i,0.69,5.4
O=C1C2CCCCN2C(=O)N1CCCCN1CCN(c2cccc(C(F)(F)F)c2)CC1 (stereo not given),.,-1.0,1.5,0%,i,.,.
Cc1[nH]c2ccccc2c1C(=O)C(=O)NCCC1=CCCCC1,5.8,2.3,.,.,.,0.64,1.9
Cc1ccn2cc(C(=O)Nc3nnc(C)s3)nc2c1,-19,-0.4,.,6%,.,0.64,-0.5
C=CCSc1nc(=O)n2cccc(C)c2n1,5.7,1.2,-3.6,-4%,i,0.7,-1.2
Cn1cnnc1SCC(=O)NC1CCCN(Cc2ccc(Cl)cc2)C1 (stereo not given),2.7,4.0,2.0,-10%,i,0.66,-0.4
CCC(C)(C(=O)NC1CCCCC1)N(Cc1ccco1)C(=O)Cc1cccs1 (stereo not given),3.7,0.3,.,0%,.,0.68,8.1
# Following part:
SMILES,UCH37 inh,HNF4A DNA FP,AF4-AF9 inh,Vif TR-FRET,FGF22 binding,Ecoli growth,RanGTP-Impb inh
O=C(C[n+]1ccccc1)N/N=C/c1ccc(O)cc1,.,-0.3,1.0,5%,.,.,-0.1
CC1=NN(c2ccccc2)C(=O)C1C(=O)c1ccccc1 (stereo not given),5.5,1.1,5.7,.,i,0.69,-0.8
O=C(CN1C(=O)CCS(=O)(=O)c2ccccc21)Nc1ccc(F)cc1,3.2,1.1,3.6,-3%,i,0.62,3.3
Cc1ccc(-c2nnn(CC(=O)N(c3ccc(F)cc3)C(C(=O)NC3CCCC3)c3ccncc3)n2)o1 (stereo not given),2.2,-0.5,-1.2,.,.,0.68,?
CCNC(=O)NC(=O)COC(=O)C1CSC2(C)CCC(=O)N12 (stereo not given),-0.9,3.2,1.2,2%,i,0.68,-3.7
O=C(NCc1cccnc1)C(=O)NCC1CCCO1 (stereo not given),0.3,3.7,-1.3,-3%,i,0.69,-2.0
CCc1nc2c(OCc3ccc(OC)cc3)cccn2c1N(C)C(=O)c1ccco1,.,-0.6,2.8,.,i,.,.
O=C(NCCCn1ccnc1)C(=O)NCc1ccc(Cl)cc1,1.8,2.4,.,2%,.,0.72,2.4
CCOC(=O)/C(C#N)=C1/C=CN(C)C=N1,20,-2.2,.,?,.,0.69,0.6
Cc1ccc(NC2=C(NC(=O)c3ccccc3)C(=O)c3ccccc3C2=O)cc1Cl,19,3.6,.,.,.,0.67,-1.1
COc1ccccc1OC(=O)Nc1ccc(Cl)cc1,1.9,0.6,-1.4,-3%,i,0.64,1.2
O=C(Nc1nc(-c2cccc(Br)c2)cs1)Oc1ccccc1,0.2,0.6,1.6,10%,i,0.66,1.9
COc1ccccc1N1CCN(CCN2C(=O)CC(=C3c4ccccc4-c4ccccc43)C2=O)CC1,7.0,.,.,.,.,0.72,?

# Three structures out of the list, ordered by formula weight, ascending.
SMILES,UCH37 inh,HNF4A DNA FP,AF4-AF9 inh,Vif TR-FRET,FGF22 binding,Ecoli growth,RanGTP-Impb inh
CCOC(=O)/C(C#N)=C1/C=CN(C)C=N1,20,-2.2,.,?,.,0.69,0.6
COc1ccccc1OC(=O)Nc1ccc(Cl)cc1,1.9,0.6,-1.4,-3%,i,0.64,1.2
Cc1ccc(-c2nnn(CC(=O)N(c3ccc(F)cc3)C(C(=O)NC3CCCC3)c3ccncc3)n2)o1 (stereo not given),2.2,-0.5,-1.2,.,.,0.68,?
